NPYLR7 ag = activates Aedes aegypti NPYLR7 receptor; HEK293T NPYLR7/Galpha15, GCaMP6s calcium fluorescence; AID 1259423; hit rate 0.15% among 270,000; activation, % at 10 µM; in the data active = activation above about 40%;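 also: 0% = vehicle and 100% = reference agonist at the receptor; some compounds past the cut are filed as inactive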
NPYLR7 ag max-min = second read-out of NPYLR7 ag, no call of its own (marks repeat the call); activation, %; measured here: Max-Min RFU normalised activation; some inactives read as strong as hits;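 span of the calcium signal over five minutes; 0% = vehicle and 100% = native peptide agonist; compound fluorescence can raise it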
An asterisk follows results filed as active. A portion of the library, so the mix of outcomes need not match the whole.

SMILES	NPYLR7 ag	NPYLR7 ag max-min
COc1ccc(OC)c2sc(N(CCN3CCOCC3)C(=O)c3ccno3)nc12	0.9	19.4
Cc1cc(C)c(CNCc2cn[nH]c2-c2cccs2)c(C)c1CO	3.9	1.0
CCCC(C)NC(=O)CSc1nnc(Nc2ccc(C(C)C)cc2)s1 (stereo not given)	-0.6	1.7
Cc1ccc(-n2c(N)c(C(=O)N3CCOCC3)sc2=S)cc1	8.1	3.8
CC(=O)c1cccc(NC(=O)c2ccc(CN3C[C@@H](C)NC[C@@H]3C)cc2)c1	6.1	2.6
Cc1nnc(NC(=O)CCN2C(=O)/C(=C/c3ccc(Cl)cc3)SC2=S)s1	-3.1	-10.1
Cc1ccc(CNC(=O)N(C)Cc2cccs2)cc1F	-1.7	-2.3
Cc1cccc(NC(=O)c2ccc(CN(C)C(C)c3ccon3)cc2)c1C#N (stereo not given)	-0.7	-1.6
O=C(NCCOc1ccccc1)N1CCN(S(=O)(=O)c2ccccc2)CC1	-2.4	-1.9
c1cc(-c2nccn2CCCc2nn[nH]n2)cc(-n2cccn2)c1	0.5	8.2
CN1C(=O)C2(CCN(C(=O)CCCn3cncn3)CC2)c2ccccc21	-4.7	-5.4
CCOC(=O)CCC(=O)Nc1ccc(-c2onc3c2CCc2ccccc2-3)cc1	1.0	-1.0
CC(C)=CCC/C(C)=C/CNC(=O)CCC(=O)O	-1.6	-6.8
O=C(/C=C/c1ccccc1)Nc1nccs1	4.2	0.8
CCOC(=O)c1ccc(Nc2nc(-c3cc4cc(OC)ccc4oc3=O)cs2)cc1	-0.6	-6.0
CC1SC(c2ccc(C(F)(F)F)cc2)N(CCC(=O)NCCN(C)C)C1=O (stereo not given)	14.3	12.3
CN(Cc1ccc(C(=O)NCC(F)(F)F)cc1)C(=O)n1ccnc1	-26.0	-26.4
CCCn1c(=O)c(C(=O)Nc2cccc(F)c2)nn(-c2cccc(C)c2)c1=O	5.9	13.6
CCC(C)n1c(C)cn2c3c(=O)n(Cc4ccc(Br)cc4)c(=O)n(C)c3nc12 (stereo not given)	4.6	5.9
COc1ccc(-c2nn(-c3ccccc3C)c(OC(C)=O)c2-c2ccc(NC(=O)Cc3ccccc3)cc2)cc1	-2.8	-2.2
CCCc1nc2oc3cc(OC)ccc3c(=O)c2c(=O)n1-c1ccc(C)cc1	6.4	2.5
CCCCC(CCC(=O)O)(C(=O)CBr)C(=O)OCC (stereo not given)	-2.9	-6.2
Cc1nccc(NC(=O)COc2cccc(C(C)C)c2)c1C	3.5	1.1
Cc1noc(C(C)NC(=O)c2cc3c([nH]c2=O)CC(C)(C)CC3=O)n1 (stereo not given)	4.1	3.1
CC1c2cccn2CCN1C(=O)CC1(c2ccccc2)CC(=O)N(Cc2ccc3c(c2)OCO3)C1=O (stereo not given)	-3.8	-6.4
(next part)
SMILES	NPYLR7 ag	NPYLR7 ag max-min
Cc1noc(C)c1C1CCCN1Cc1ccc(Sc2nncn2C)o1 (stereo not given)	2.4	0.6
CCOC(=O)c1nnn(-c2ccccc2OCC)c1C(=O)OCC	17.3	21.5
COc1ccc(NC(=O)C2(C)CCN2Cc2ccc(OC(F)(F)F)cc2)cc1OC (stereo not given)	10.4	7.4
COc1cn(CC(=O)Nc2cc(C)on2)c(CSc2ncccn2)cc1=O	-3.3	-10.4
O=C(NC1CCCCC1)c1nnc2n1CCN(C(=O)c1ccc3occc3c1)C2	8.2	4.3
COc1ccc(CCN2C(=O)CSC2c2ccc(OC)c(OC)c2)cc1OC (stereo not given)	-3.0	-3.7
CCOC(=O)c1c(-c2ccc(F)cc2)csc1NC(=O)COc1ccc(C#N)cc1OC	-0.4	1.5
COc1ccc2nc(N(CCCN(C)C)C(=O)c3cc(C)on3)sc2c1	1.1	-0.4
Cc1cnccc1N1CCCN(Cc2cn[nH]c2C(=O)O)CC1	1.4	-3.7
CN(C)CCNc1ccc2c(-c3ccccc3)noc2n1	16.0	14.3
c1cc(-c2ccncc2)c2cccnc2c1	4.5	1.4
O=C(Nc1cccnc1)c1cccc(S(=O)(=O)N2CCCCC2)c1	-14.3	-21.1
CCCCn1nc(C)c(CNCC(C)c2ccccc2)c1Cl (stereo not given)	2.1	-0.2
COc1ccc(C2=CSC3=NS(=O)(=O)CCN23)cc1Cl	-5.2	-4.8
O=C1NCC(=O)N2CCN(Cc3ccc4c(c3)Cc3ccccc3-4)CC12 (stereo not given)	8.1	5.7
Cc1csc(C(C#N)=Cc2cc3c(cc2Br)OCO3)n1	25.6	12.8
Cc1[nH]c2ccccc2c1/C=N\NC(=O)c1cc(C23CC4CC(CC(C4)C2)C3)[nH]n1	-4.4	-9.5
Oc1c2cccnc2cn1CC1(COc2ccccc2)CC1	0.1	-3.3
COc1ccc(N2CCN(c3cc(C(=O)NCCc4cccc(OC)c4)c4ccccc4n3)CC2)cc1	4.6	0.8
O=C1CCCc2nc3nc4ccccc4n3cc21	8.2	3.3
O=C(NCCc1ccccn1)N1CCCc2ccc(F)cc21	-18.4	-19.1
Cc1ccccc1CSc1ncc(CO)n1CC(=O)NCc1ccc(Cl)cc1	0.4	-2.4
CC(=O)NC(C)C(=O)NC(C)C12CC3CC(CC(C3)C1)C2 (stereo not given)	9.5	6.8
O=C(CSc1nc2ccccc2c(=O)n1CCC1=CCCCC1)NNC(=O)c1cccs1	-2.5	-5.5
O=C(NC1CCN(c2ccccc2C(=O)N2CCOCC2)CC1)c1ccc([N+](=O)[O-])cc1	20.3	12.6

Not a retest: an excerpt of the list.
SMILES	NPYLR7 ag	NPYLR7 ag max-min
Cc1noc(C)c1C1CCCN1Cc1ccc(Sc2nncn2C)o1 (stereo not given)	2.4	0.6
CCOC(=O)c1nnn(-c2ccccc2OCC)c1C(=O)OCC	17.3	21.5
COc1ccc(NC(=O)C2(C)CCN2Cc2ccc(OC(F)(F)F)cc2)cc1OC (stereo not given)	10.4	7.4
COc1cn(CC(=O)Nc2cc(C)on2)c(CSc2ncccn2)cc1=O	-3.3	-10.4

Next section.
SMILES	NPYLR7 ag	NPYLR7 ag max-min
O=C(c1ccc(-c2cccc(Cl)c2Cl)o1)N1CCN(S(=O)(=O)c2ccc(F)cc2)CC1	12.9	13.8
COc1ccc(OC)c(-c2cccc(-c3cccc(NC(=O)c4cc(OC)c(OC)c(OC)c4)c3)n2)c1	4.5	1.7
CCOC(=O)c1nn(-c2ccccc2Cl)c(=O)cc1OS(=O)(=O)c1c(C)noc1C	8.7	3.6
Cc1nc(-c2ccc(Oc3ncc(C(F)(F)F)cc3Cl)cc2)no1	0.2	-3.1
Cc1cc(C)c(OC(C)C(=O)Nc2cc(C)on2)c([N+](=O)[O-])c1 (stereo not given)	23.6	13.1
COC(=O)CCn1c(=O)c2c(nc3n(C4CCCCC4)c(C)cn23)n(C)c1=O	7.9	2.8
Cc1cc(C)c(C(N)=O)c(NCc2ccc(Cl)cc2)n1	-2.7	-1.9
COc1cc(=O)n(-c2ccccc2C)nc1C(=O)Nc1ccccc1	4.0	3.9
COc1ccccc1C(=O)Nc1ccc(-c2nc3cc(C)ccc3o2)cc1C	-1.2	11.0
CCOC(=O)N1CCN(C2CCCN(C(=O)c3ccccc3SC)C2)CC1 (stereo not given)	1.0	-0.9
CN1CCCN(c2ncccc2CNC(=O)CSc2ncn[nH]2)CC1	-0.5	-7.8
COC(=O)c1cc(CN2CCC3(CCCN(C)C3=O)C2)ccc1O (stereo not given)	1.3	0.4
COc1ccc(OC)c(-c2nc3ccccn3c2NCc2ccccc2)c1	27.5	24.3
CN1CC2(CCN(C(=O)c3[nH]ncc3Cl)CC2)CC1C(=O)O (stereo not given)	7.5	5.0
CCN(CC)CCN(C(=O)c1ccc(S(C)(=O)=O)cc1)c1nc2cc(C)cc(C)c2s1	-0.6	-3.9
O=C(Nc1cccc(S(=O)(=O)N2CCCC2)c1)c1cccs1	8.2	12.9
O=C(CSc1nc(=O)n(CCN2CCOCC2)c2c1CCC2)NCc1ccccc1	-2.6	-1.9
Cc1ccc(C(=O)NC(C(=O)N=c2sccn2C)C(C)C)cc1 (stereo not given)	4.7	2.6
COCCN(Cc1cc(NC(=O)C2CCC2)ccc1N(C)C)C(=O)c1ccco1	20.8	17.9
COCCN(Cc1ccco1)Cc1ccc(C(C)(C)O)o1	-1.8	6.0
CCOc1ccc(S(=O)(=O)n2ccc(C)n2)cc1C	5.2	2.8
O=C(c1ccc(-c2ccccc2)cc1)C1CCCN(C(=O)CSc2ncccn2)C1 (stereo not given)	6.9	6.2
CNc1snc(C)c1C(=O)OC(C)C(=O)NC1CCCC1 (stereo not given)	1.5	1.5
Cc1cn2c3c(=O)n(Cc4ccc(Cl)cc4)c(=O)n(C)c3nc2n1C	-2.5	8.9
Cc1[nH]c2c(CNC(=O)Cc3ccccc3)cc(F)cc2c1C	10.3	8.1
Further records:
SMILES	NPYLR7 ag	NPYLR7 ag max-min
COC(=O)NCC1CN(c2ccc(C)cc2)C(=O)O1 (stereo not given)	1.7	5.3
COc1ccc(C(=O)N(Cc2ccco2)Cc2cc(NC(=O)C3CCCC3)ccc2N(C)C)cc1	22.6	23.6
Cc1nc(N2CCC(C(N)=O)CC2)nc2c1C(=O)CC(C)C2 (stereo not given)	2.1	-1.9
O=C(NC(NC(=S)Nc1ccc(F)c([N+](=O)[O-])c1)C(Cl)(Cl)Cl)C(c1ccccc1)c1ccccc1 (stereo not given)	-10.0	-13.8
Cc1cc(OCC(=O)NCc2ccccc2Br)nc(N2CCN(c3ccccc3)CC2)n1	3.4	7.1
COc1ccc(CN2CCCC(CNC(=O)C3(N)CCC3)C2)c(C)c1 (stereo not given)	1.5	1.1
CCCc1cc(C(=O)N(C)Cc2nc(C)no2)cs1	24.3	14.2
CN(c1cc(C(F)(F)F)nc(SCc2ccc(C(=O)O)o2)n1)C1CCCCC1	-0.4	9.7
COCCOC(=O)c1c2c(n3cc4ccccc4cc13)C(=O)c1ccccc1C2=O	-9.1	-14.3
Cc1ccc(CN(C)C(=O)c2ccc(-n3cnnc3)cc2)o1	0.3	-7.4
CCOC(=O)c1ccc(NC(=O)c2cc(-c3ccccc3)nc3ccccc23)cc1	-1.6	2.3
CCC(C(=O)N(CC(=O)c1c(C)c(C(=O)OC)n(C)c1C)CC1CCCO1)c1ccccc1 (stereo not given)	-12.2	-0.7
CC(=O)NC(C)c1ccc(-c2ccc3c(c2)OCO3)cc1 (stereo not given)	3.9	0.4
CN1CCc2nc3sc(C(=O)OCc4ccccc4)c(N)c3cc2C1	-12.3	-18.6
Cc1cccnc1CN(C)C(=O)C(O)c1ccc(C(F)(F)F)cc1 (stereo not given)	5.9	5.1
O=c1c(Cl)c(NCCO)ncn1-c1ccccc1	-2.3	-2.6
O=C(Nc1ccccc1)N1CCCC(C(=O)N2CCc3ccccc32)C1 (stereo not given)	-1.3	-5.0
Cc1ccc(-n2ncc3c(=O)n(NC(=O)CC(C)(C)C)cnc32)cc1C	5.5	3.9
Cc1ccn2c(NC(=O)C(C)(C)CCl)c(-c3ccccc3)nc2c1	-11.7	-6.8
CC(C)(NCc1nnc(C2CC2)o1)c1cccc(C(F)(F)F)c1	15.5	12.5

Looked up one by one from the entries so far, 6 records:
SMILES	NPYLR7 ag	NPYLR7 ag max-min
COc1ccc(CN2CCCC(CNC(=O)C3(N)CCC3)C2)c(C)c1 (stereo not given)	1.5	1.1
O=C(NC(NC(=S)Nc1ccc(F)c([N+](=O)[O-])c1)C(Cl)(Cl)Cl)C(c1ccccc1)c1ccccc1 (stereo not given)	-10.0	-13.8
Cc1ccn2c(NC(=O)C(C)(C)CCl)c(-c3ccccc3)nc2c1	-11.7	-6.8
CCCc1cc(C(=O)N(C)Cc2nc(C)no2)cs1	24.3	14.2
COCCOC(=O)c1c2c(n3cc4ccccc4cc13)C(=O)c1ccccc1C2=O	-9.1	-14.3
Cc1ccc(CN(C)C(=O)c2ccc(-n3cnnc3)cc2)o1	0.3	-7.4

Bioassay records deposited in PubChem by Fisher Drug Discovery Resource Center.
